Screens as filed in PubChem BioAssay.
gsp agonist – qHTS for Agonist of gsp, the Etiologic Mutation Responsible for Fibrous Dysplasia/McCune-Albright Syndrome: qHTS; gsp mutant cells, cAMP HTRF, 30 min; control for the full effect not named in the record; Potency, µM (titrated, usually from 76.9 µM), inactives show at the top dose activation (cAMP increase), hits mostly activators; 0.13% of 340,000 active; AID 624287, 2012; active = well fitted activation curve with a large enough effect; inconclusive = small, poorly fitted or top-dose-only effect, or another doubt; inactive = no such curve, though single readings can be large or run the other way; cell line not stated here;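 also: phosphodiesterase inhibitor Ro 20-1724 added with compounds to block cAMP breakdown; potency is read from the fitted curve at half-maximal effect; nearly all actives have a fitted effect of over 60% in size; about a fifth of the inactives were tested at one dose only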
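Cells in DMEM/10% FBS with G418 were pretreated with compounds in DMSO plus […] (300 uM stock) for 30 min at 37C. cAMP was measured by HTRF (cAMP-d2 plus anti-cAMP antibody-K) after 30 min at room temperature.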
gsp antagonist – qHTS for Antagonists of gsp, the Etiologic Mutation Responsible for Fibrous Dysplasia/McCune-Albright Syndrome: qHTS. gsp-mutant cells, cAMP HTRF, 30 min; control for the full effect not named in the record. Potency, µM (highest dose often 76.9 µM), without a hit: at the highest dose activity change, negative = inhibition, actives largely listed as inhibitors. 0.4% of 340,000 active; active = falling curve of any shape with a large fitted effect; inconclusive = falling curve, mostly with a smaller effect; inactive = flat or rising curve; cell line not stated here;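 also: intracellular cAMP measured with PDE inhibitor Ro 20-1724 present during compound exposure; potency is read from the fitted curve at half-maximal effect; % is scaled to controls: 0 for no effect and ±100 for the full control effect; nearly all actives have a fitted effect of over 65% in size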
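Cells in G418 medium, seeded 16-24 h, 37C; buffer exchange to DPBS + 1 mM CaCl2, 0.5 mM MgCl2, 0.05% BSA; cpds in DMSO + […] (300 uM stock), 30 min 37C; HTRF cAMP detection.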
ClpP mod – qHTS Assay for Activators of ClpP; ATP-dependent Clp protease proteolytic subunit (Bacillus subtilis (strain 168)), P80244; purified B. subtilis ClpP, FRET peptide cleavage, 20 min; Potency, µM (top dose mostly 57.5 µM), inactives show at the top dose activity change, negative = active; 1.9% of 340,000 active; active = well fitted falling curve with a large enough effect; inconclusive = small, poorly fitted or top-dose-only effect; inactive = no such curve, though single readings can be large or run the other way; also: potency is read from the fitted curve at half-maximal effect; the source files actives as falling curves though it sought activators and does not explain the sign; nearly all actives have a fitted effect of over 65% in size; many hits overshoot -100%
Target sequence (P80244 whole entry, looked up): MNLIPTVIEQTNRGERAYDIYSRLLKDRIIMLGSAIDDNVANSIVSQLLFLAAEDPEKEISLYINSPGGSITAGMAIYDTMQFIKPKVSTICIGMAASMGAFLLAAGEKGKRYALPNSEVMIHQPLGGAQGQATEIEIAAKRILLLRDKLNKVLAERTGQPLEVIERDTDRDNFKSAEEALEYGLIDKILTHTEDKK
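Buffer: 100 mM Tris/HCl pH8, 100 mM KCl, 0.05% low protease BSA, 2.5% glycerol, 0.01% Tween-20. ClpP 10 microg/mL final; 20 min RT; delta FRET normalized to ADEP and DMSO controls.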
TRPML1 inh – qHTS for Inhibitors of the Human Mucolipin Transient Receptor Potential 1 (TRPML1) | activity change, negative = inhibition, % (test concentration not listed) | AID 624415, 2012 | 0.02% of 390,000 active | TRPML1-inducible cells, Ca2+ dye fluorescence, FDSS; stronger effect = lower value; inhibition of EC80 agonist-evoked calcium signal | Mucolipin-1 (Homo sapiens), Q9GZU1; in the data active means activity change below about -50%; inconclusive means about -30% to -50%; inactive means above about -30%;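 also: stimulus is agonist 54-4 at its EC80 concentration; % is scaled to controls: 0 for no effect and ±100 for the full control effect; compound concentration not given in the record; the text of the record puts the active cut at -80%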
Target sequence (Q9GZU1 whole entry, looked up): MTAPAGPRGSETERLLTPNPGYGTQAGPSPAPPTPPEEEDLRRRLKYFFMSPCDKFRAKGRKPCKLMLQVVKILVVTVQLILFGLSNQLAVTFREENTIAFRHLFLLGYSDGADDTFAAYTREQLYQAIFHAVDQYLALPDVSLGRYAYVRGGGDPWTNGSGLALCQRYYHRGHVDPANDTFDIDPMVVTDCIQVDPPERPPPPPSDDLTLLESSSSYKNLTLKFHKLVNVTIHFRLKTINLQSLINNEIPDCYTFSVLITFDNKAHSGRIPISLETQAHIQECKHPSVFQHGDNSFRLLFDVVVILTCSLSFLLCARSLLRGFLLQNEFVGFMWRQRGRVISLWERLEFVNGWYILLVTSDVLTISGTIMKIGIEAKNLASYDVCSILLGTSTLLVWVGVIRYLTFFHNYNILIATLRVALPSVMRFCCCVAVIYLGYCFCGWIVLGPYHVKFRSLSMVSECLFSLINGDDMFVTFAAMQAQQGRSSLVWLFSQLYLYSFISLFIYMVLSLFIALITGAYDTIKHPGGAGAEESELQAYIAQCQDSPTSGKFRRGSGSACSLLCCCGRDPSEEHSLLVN
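Calcium fluorescence in TRPML1-DL cells induced overnight with Tet: a 110 s read after compound pin addition, then a 110 s antagonist read after challenge with 54-4 at 4 uM final (EC80).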
TRPV1 potentiator – HTS Assay for Compounds that Act as Potentiators of the Vanilloid Receptor 1 | Transient receptor potential cation channel subfamily V member 1 (Homo sapiens), Q8NER1 | TRPV1-expressing cells, Fluo-8 calcium influx, capsaicin EC20 potentiation; host cell line not named in the record; control for the full effect not named in the record | potentiation, % at 8.33 µM | 0.02% of 320,000 active | AID 540277, 2011; active means potentiation above 80%; inconclusive means 30% to 80%; inactive means below 30%; also: 0% is about no effect
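Fluo-8 calcium influx in TRPV1-expressing cells, kinetic read (ex 480/em 520 nm). Compound added and read 3 min for agonist activity, followed by capsaicin at EC20 final and 2 min further read for enhancement.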
Sfp inh – qHTS Assay for Inhibitors of Bacillus subtilis Sfp phosphopantetheinyl transferase (PPTase); 4'-phosphopantetheinyl transferase ffp (Bacillus subtilis), Q9F4F7; 3.5% of 310,000 active; Biochemical Sfp PPTase activity, qHTS; Potency, µM, inactives show max response, negative = inhibition, hits mostly inhibitors; AID 1490, 2009; active = well fitted inhibition curve with a large enough effect; inconclusive = small, poorly fitted or top-dose-only effect, or another doubt; inactive = no such curve, though single readings can be large or run the other way;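 also: the enzyme is Sfp with the accession as filed and its product quenches rhodamine fluorescence; potency is read from the fitted curve at half-maximal effect; 0% = enzyme reaction without inhibitor and -100% = no enzyme wells; top concentration of the series not given in the record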
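After 15 min at room temperature with compound, 15 nM Sfp received 5 uM rhodamine-CoA plus 12.5 uM BHQ-2-ybbR (50 mM Hepes pH 7.6, 10 mM MgCl2). Rate came from the fluorescence difference over 30 min, ex 525/em 598 nm.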
Menin-MLL FL inh – qHTS Assay for Inhibitors Targeting the Menin-MLL Interaction in MLL Related Leukemias: Competition With Fluorescein Labeled MLL-derived Peptide. Fluorescence polarization, fluorescein-MLL peptide displacement from menin. FP activity change, % at 61.4 µM. 290,000 tested, under 10 active; inconclusive = falling polarisation curve, or a change in total fluorescence; inactive = total fluorescence flat and polarisation flat or rising; no compound was filed as active; the % refers to the polarisation; negative = inhibition;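 also: % of control where 0% means no effect; inhibitors lower the polarisation; unlabelled MLL peptide was the positive control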
An asterisk follows results filed as active; ? = inconclusive; / = no result given; & = joins results of further samples; [ ] = another dose, or the depositor's remark.

Structure | gsp agonist | gsp antagonist | ClpP mod | TRPML1 inh | TRPV1 potentiator | Sfp inh | Menin-MLL FL inh
Cc1cccc(C)c1NC(=O)C(C)Sc1n[nH]c(-c2ccncc2)n1 (stereo not given) | -15%[15.4 µM] | -3% | / | -11 | -8 | 15% | 8.5
COc1ccc([C@@H]2CC=C(C(=O)O)[C@H](c3cccc(Cl)c3)N2S(=O)(=O)c2ccccc2C)cc1 | -3% | -6% | 0.8% | 8 | ? | / | /
O=C(Cn1cc2c(n1)CCCC2)N1CCOCC1 | 0% | 5% | 0.8% | 13 | -16 | 2% | 0.1
O=C(Cn1c(=O)c2cccn2c2ccc(F)cc21)N1CCN(c2ccc(F)cc2)CC1 | 1% | -16% | 15%&-20% | 9&40 | 7 | 3% | /
Cc1cc(C)nc(SCc2cn3ccccc3n2)n1 | 13% | 9% | -2.2% | 16 | 7 | -16% | 3.1
O=C(CCc1nnc(Cc2ccc3c(c2)OCO3)o1)NC(c1ccccn1)C(F)(F)F (stereo not given) | -34%[inhibitor] | 8% | -0.5% | -6 | 4 | 15% | -3.9
O=C(COC(=O)CCC(=O)c1ccccc1)Nc1nnc(-c2ccccc2)o1 | -82%[inhibitor] | 4% | 4.3% | -4 | 5 | / | /
Cc1ccc(C(=O)N/N=C/C=C/c2ccccc2)cc1 | 8% | -3% | / | 6 | -15 | 15% | 0.6
COc1nccnc1NS(=O)(=O)c1ccc(N=Cc2c(C)[nH]n(-c3ccc(C)c(C)c3)c2=O)cc1 | -50%[inhibitor] | -16% | 0.6% | 3 | -9 | 28% | 6.2
CC(Oc1cccc([N+](=O)[O-])c1)C(=O)NCCC1=CCCCC1 (stereo not given) | -14% | 3% | -1.3% | 17 | -17 | / | /
CCOC(=O)C(=O)NCC(c1cccs1)S(=O)(=O)c1ccc(Cl)cc1 (stereo not given) | -4% | -2% | -1.1% | -5 | -2 | 1% | -0.8
CCOC(=O)C1CCCN(C(=O)CCc2nnc(-c3ccc(C(C)=O)s3)o2)C1 (stereo not given) | -16% | 4% | 0.7% | -19 | 4 | -1% | 5.1
Cc1cc(N2C(=O)C(=O)/C(=C(/O)c3ccc(F)cc3)C2c2cccc(Br)c2)no1 (stereo not given) | 12% | -26% | 1.8% | -4 | 11 | 10% | 1.5
COc1ccc(F)cc1S(=O)(=O)NCCN1CCOCC1 | -31%[inhibitor] | 11% | 2.9% | / | -3 | 14% | 3.5
Cn1c(SCC(=O)NC2CC2)nnc1C1CC1 | 14% | 9% | -0.6% | 3 | -1 | 3% | /
CC(C)c1ccc(-n2nc3ccc(N)cc3n2)cc1 | -1%[15.4 µM] | -3% | -0.6% | -27 | -10 | -4% | -0.5
COC(=O)c1sccc1NC(=O)CC1C(=O)NCCN1C(=O)Nc1ccc(F)cc1F (stereo not given) | -10%[15.4 µM] | -2% | / | 11 | -2 | 31%[activator] | -0.3
O=C1c2ccccc2C(=O)N1CCCCSc1nnc2ccccn12 | 6% | 5% | 5.9% | 0 | -1 | 10% | 3.1
O=S(=O)(Nc1ncnc2c1oc1ccccc12)c1ccc(Cl)s1 | -20% | -31% | -5.3% | -10 | -9 | 21% | 4.3
Cn1c(C(=O)OC(C(=O)NC2CCCCC2)c2cccnc2)cc2sccc21 (stereo not given) | 5% | -18% | 1.3% | -10 | 18 | -3% | -1.3
CCCOC(=O)COC(=O)c1ccccc1NC(=O)c1ccccc1 | -44% | -8% | -5.5% | -6 | 1 | ? | 6.7
CCc1ccc(OCC(=O)N2CC(C(N)=O)Oc3ccccc32)cc1 (stereo not given) | -10%[15.4 µM] | 4% | / | 4 | 14 | -3% | -8.5
CCOc1ccc(N2CC(C(=O)Nc3ccccn3)CC2=O)cc1 (stereo not given) | -17% | -8% | / | 8 | -17 | 0% | -2.3
COC(=O)c1ccccc1CSc1nsc(C)c1C#N | 29% | 0% | -1.4% | -14 | 1 | 50µM* | 5.4
Cc1ccc(C)c(CN2CCC(CNC(=O)Nc3cccc(Cl)c3C)CC2)c1 | 5% | 12% | / | 46 | -2 | 10% | -3.3
Cc1c(C)c2ccc(OCC(=O)N3CC[C@@]4(O)CCCC[C@H]4C3)c(C)c2oc1=O | / | 4% | 4.3% | / | 6 | 10% | 0.3
O=C(O)c1cc(S(=O)(=O)NC(CO)C(O)c2ccc([N+](=O)[O-])cc2)ccc1Br (stereo not given) | 12% | 5% | 0.4% | -8 | -4 | 13% | -2.1
CC(C)C(=O)Nc1cccc(NC(=S)NC(=O)c2ccccc2Cl)c1 | 4% | ? | 0.9% | 1 | -1 | 4% | -2.4
O=C(CN1C(=O)NC2(CCCCC2)C1=O)N1CCc2ccccc2C1 | 5% | 11% | 1.5% | 16 | -4 | 17% | -2.4
COc1ccccc1NC(=O)COc1ccccc1 | -7% | -1% | -1.9% | -7 | -2 | 0% | 2.1
COc1ccc(N(C(=O)c2snc(C(N)=O)c2N)C(C(=O)NC2CCCC2)c2cccs2)c(OC)c1 (stereo not given) | 3%[15.4 µM] | / | / | 16 | 0 | 7% | -1.2
CCOC(=O)C1CCCN(S(=O)(=O)c2c(C)[nH]c(C)c2C(=O)N2CCCC2)C1 (stereo not given) | -5% | -3% | -1.4% | 2 | 4 | 0% | -11
CCCOC(=O)C1C2C=CC(C2)C1C(=O)OCC(=O)c1ccccc1 (stereo not given) | -14% | -14% | -2.1% | -12 | -18 | -1% | -2.0
CCN(CC)c1ccc(C=C2SC(=S)NC2=O)cc1 | ? | ? | 1.2% | -22 | / | / | /
Cc1ccc(C(=O)N2CCC(C)CC2)cc1S(=O)(=O)N1CCCCC1 | 9%[15.4 µM] | 10% | -6.5% | -7 | -7 | 13% | -0.4
CCOC(=O)c1ccc(NC(=S)NC2CCCC2)cc1 | 7% | -2% | -1.2% | 4 | -20 | 15% | /
C=CCNc1nc(-c2ccccc2)nc(-n2ccnc2)n1 | -27% | -5% | 0.8% | 2 | -12 | 15% | 4.8
COc1ccc(C(=O)NC2CCCCC2)cc1S(=O)(=O)N1CCCC1 | 1% | -3% | -4.4% | 25 | 9 | 19% | -0.2
COc1ccc2nc3c(cc2c1)Cn1c-3nc2ccccc2c1=O | / | / | / | -13 | / | 6% | 9.1
O=C(Cn1cc(C(F)(F)F)ccc1=O)N1CCN(S(=O)(=O)c2ccccc2)CC1 | 13% | -6% | -1.6% | 29 | 13 | 11% | 3.4
O=C(Nc1ccc(Br)cc1)C1CC=CCC1C(=O)OCC1CCCO1 (stereo not given) | 18% | 3% | -3.1% | -14 | -2 | 12% | 2.7
CCOC(=O)c1ccc(/[N+]([O-])=C/c2ccccc2)cc1 | 18% | 14% | 3.5% | 9 | 2 | / | /
O=C(Nc1cccc2ccccc12)N1CCN(c2ccccc2)CC1 | 10% | 3% | -7.1% | 24 | -14 | 17% | -3.0
CCOC(=O)N1CCN(S(=O)(=O)c2ccc(OC)c(Cl)c2Cl)CC1 | ? | -3% | -1.0% | 19 | 0 | -18% | -0.5
CCOc1ccc2c(c1)C(c1ccc(C)cc1)=NNC(c1ccc(OC)cc1)=N2 | 10% | -22% | -1.2% | 29 | -2 | 14% | 3.5
CCC(Oc1ccccc1)C(=O)Nc1nnc(S(=O)(=O)N2CCCCC2)s1 (stereo not given) | ? | 4% | -8.3% | -13 | ? | 11% | /
CCN(CC(=O)Nc1ccccc1Br)Cc1nc2ccccc2c(=O)[nH]1 | 5% | 5% | -0.7% | 21 | -23 | 10% | -2.0
COCCNC(=O)C(c1ccncc1)N(C(=O)Cn1nnc2ccccc21)c1ccc(OC)cc1 (stereo not given) | -34%[inhibitor] | 13% | 0.0% | -7 | 2 | -1% | 2.8
O=C(C1=C(O)C(=O)N(CCN2CCOCC2)C1c1cccs1)c1cc2ccccc2o1 (stereo not given) | ? | 8% | -4.1% | 12 | / | / | /
CCOc1ccc2c(S(=O)(=O)O)cccc2c1[N+](=O)[O-] | 17%[15.4 µM] | 0% | -0.9% | -1 | / | / | /
CN(CC(=O)NCc1ccncc1)S(=O)(=O)c1ccc(F)cc1 | -1% | 4% | 0.2% | 61 | 5 | 10% | 0.6
CCOc1ccc(C(=O)COC(=O)c2c(-c3ccccc3)noc2C)cc1 | -5%[15.4 µM] | -10% | / | -2 | 3 | / | /
O=c1oc(-c2cccs2)nc2sc3c(c12)CCCCC3 | -5% | 4% | 0.4% | -12 | -11 | 2% | 4.4
C(=C\c1ccccc1)/CSc1ccccn1 | 12%[15.4 µM] | ? | / | 7 | 1 | 11% | -1.6
Fc1ccccc1N1CCN(C2CCN(Cc3c[nH]c4ccccc34)CC2)CC1 | -20% | -2% | 0.1% | 27 | -14 | -12% | 2.7

Random excerpt: 5 records from the list
Structure | gsp agonist | gsp antagonist | ClpP mod | TRPML1 inh | TRPV1 potentiator | Sfp inh | Menin-MLL FL inh
CN(CC(=O)NCc1ccncc1)S(=O)(=O)c1ccc(F)cc1 | -1% | 4% | 0.2% | 61 | 5 | 10% | 0.6
CCOC(=O)c1ccc(/[N+]([O-])=C/c2ccccc2)cc1 | 18% | 14% | 3.5% | 9 | 2 | / | /
O=C(Nc1ccc(Br)cc1)C1CC=CCC1C(=O)OCC1CCCO1 (stereo not given) | 18% | 3% | -3.1% | -14 | -2 | 12% | 2.7
Fc1ccccc1N1CCN(C2CCN(Cc3c[nH]c4ccccc34)CC2)CC1 | -20% | -2% | 0.1% | 27 | -14 | -12% | 2.7
CCOc1ccc2c(S(=O)(=O)O)cccc2c1[N+](=O)[O-] | 17%[15.4 µM] | 0% | -0.9% | -1 | / | / | /
